Proteasome disasm = blocks ATP-dependent breakdown of the yeast 26S proteasome; anti-FLAG beads, GFP-proteasome disassembly, flow cytometry; inhibition of disassembly, % (test concentration not listed); 24,000 tested, 0.2% active; AID 751;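 active = above 40%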;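 note: plate controls were ATP control with full disassembly for no effect and ATP-gamma-S intact proteasomes for full effect; higher percent means more bead fluorescence retained so stronger block of disassembly; stock transfer was 100 nL into about 10 µL; wells with too few beads may also be inconclusive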
VCAM-1 up = enhancers of VCAM-1 display on endothelial cells, cell-based, plate reader, pooled HUVEC, TNFa stimulus (AID 455); HUVEC TNFa-induced VCAM-1 immunofluorescence, plate reader; numbers were filed only for top-ranked candidate wells; augmentation, % at 5 µM; 10,000 tested, 0.2% active;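 active = a compound raising TNF-alpha-driven VCAM-1 surface staining, with its hit status upheld on visual or statistical review; inactive = the rest, including hits rejected on review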;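 note: 0% = TNFa with vehicle and 100% = strongest image-checked hit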
* marks the source's active call; other numbers are inactive results; i = inactive; x = no result given. Some of the compounds tested; the hit share may differ from the screen's.

SMILES	Proteasome disasm	VCAM-1 up
[N-]=[N+]=CC(=O)OC[C@H](N)C(=O)O	-0.6	i
CCC(C(=O)N1CCC2(CC1)OCCO2)c1ccccc1 (stereo not drawn)	-2.8	i
Nc1ccccc1C(=O)OC1CSC1	-4.9	i
Cc1nc2ncnn2c(C)c1CCC(=O)N1CCC2(CC1)OCCO2	0.1	x
CN1C[C@H](CNC(=O)OCc2ccccc2)C[C@@H]2c3cccc4c3c(cn4C)C[C@H]21	3.0	i
Cc1ccc2c(c1)C1CN(C)CCC1N2C(=O)Cn1nnc(-c2ccccc2F)n1 (stereo not drawn)	-0.4	x
COc1ccc2[nH]c(C)c(CCN3CCC(=O)C(C)C3C)c2c1 (stereo not drawn)	0.2	x
Cc1cc(N2C(=O)C3CCCN3C2c2cccc(Cl)c2)no1 (stereo not drawn)	0.8	i
Cc1c2ccncc2c(C)c2c1[nH]c1ccccc12	5.8	i
O=c1c2ccccc2[nH]c(=S)n1-c1ccc2c(c1)OCO2	0.0	x
Cc1nn(Cc2ccccc2Cl)c(Cl)c1C(=O)OCC(=O)NCc1ccco1	-0.6	i
Cn1cc(C(=O)c2ccccc2)c2ccccc21	-0.8	x
N#CC1=C(N)Oc2c(c(=O)oc3ccccc23)C1c1ccc(OC(=O)N2CCOCC2)cc1 (stereo not drawn)	-3.4	x
CCOC(=O)C1C(=O)N(C)C2(C)CC1c1cc(OC)ccc1O2 (stereo not drawn)	-0.9	x
COc1ccc(Cc2nccc3cc(OC)c(OC)cc23)cc1OC	-0.2	i
CC(C)N(CCC(C(N)=O)(c1ccccc1)c1ccccn1)C(C)C (stereo not drawn)	0.0	i
O=C(NCC(c1cccnc1)N1CCN(c2ccccc2)CC1)Oc1ccccc1 (stereo not drawn)	45*	x
Cc1nc2ccccc2c(=O)n1-c1ccc(F)cc1	1.2	i
O=C1C2CCCN2C(c2ccncc2)N1c1ccc(Cl)c(Cl)c1 (stereo not drawn)	4.6	x
CCOC(=O)N1CCC(NC(=O)CCc2nc(C3=CCN(C)CC3)no2)CC1	1.2	x
NCC(CC(=O)O)c1ccc(Cl)cc1 (stereo not drawn)	1.2	i
COc1ccc(OC)c(C2=NOC(C(=O)N3CCC4(CC3)OCCO4)C2)c1 (stereo not drawn)	0.8	i
CCS(=O)(=O)N1CCCC(C(=O)N2CCC3(CC2)OCCO3)C1 (stereo not drawn)	-1.2	x
C=CCN(CC=C)Cc1c[nH]c2ccccc12	1.5	x
Cc1cc(OCC(=O)O)c2c3c(c(=O)oc2c1)CCCC3	-0.6	i
CN(C)C(=O)Oc1ccc(-c2nnco2)cc1	-1.4	x
O=C(CN1CC(c2ccccc2)CC1=O)Nc1ccccc1 (stereo not drawn)	-0.7	x
O=C(Cn1nc(Cc2cccnc2)c2ccccc2c1=O)N1CCC2(CC1)OCCO2	1.6	x
CCOc1cc2[nH]c(=S)n(CCCC(=O)N3CCC4(CC3)OCCO4)c(=O)c2cc1OCC	-0.5	i
Cc1ccnc(-n2c(-c3ccco3)nc3ccccc3c2=O)c1	-0.5	i
C=CCN1C(=O)CSc2ccc(C(=O)N3CCC4(CC3)OCCO4)cc21	0.6	x
O=P(O)(O)Cc1ccccc1OP(=O)(c1ccccc1)c1ccccc1	0.0	x
COc1ccc(OC)c(N2C(=O)NC(=O)C(CCc3ccncc3)(CCc3ccncc3)C2=O)c1	-0.2	i
CCOC(=O)C1C(=O)N(C)C2(C)CC1c1ccccc1O2 (stereo not drawn)	-1.9	x
Cc1c(C(=O)N2CCC3(CC2)OCCO3)sc2ncnc(N(C)c3ccccc3)c12	0.3	x
CN1[C@@H]2CC[C@H]1CC(OC(=O)C1C=Nc3ccccc31)C2 (stereo partly drawn)	0.5	i
CCOc1cccc(N2C(=O)CC(=O)NC2=O)c1	2.7	i
COc1ccc(C2SCC(=O)Nc3c2c(=O)[nH]n3C2CCCCCC2)cc1OC (stereo not drawn)	-1.2	i
Cc1ccc2c(c1)N(CCC(=O)N1CCC3(CC1)OCCO3)C(=O)C(C)O2 (stereo not drawn)	0.8	x
O=c1[nH]c(=O)n(-c2cccc3ccccc23)c(O)c1C=NCCCn1ccnc1	1.2	i
O=C1C2CCCN2C(c2ccc(Cl)cc2)N1c1ccccn1 (stereo not drawn)	-1.1	x
CN1CC=C(c2c[nH]c3ccccc23)CC1	-1.5	x
CCOC(=O)C1C2c3ccccc3O[C@@]1(C)N=C1SCC(=O)N12 (stereo partly drawn)	-1.0	x
Cn1c(=O)cc(OCC(=O)N2CCC3(CC2)OCCO3)c2ccccc21	-1.1	x
O=P(OCC(F)(F)C(F)F)(N1CCCCC1)N1CCCCC1	0.1	i
CCN1C(=O)c2ccccc2Sc2ccc(C(=O)N3CCC4(CC3)OCCO4)cc21	0.2	x
COc1ccc(S(=O)(=O)NCc2ccc(C(=O)N3CCC4(CC3)OCCO4)cc2)cc1	0.2	x
O=C(NCc1ccccn1)c1ccccc1Cl	7.5	i
COc1ccc(CC[n+]2cc(/N=C(\C)[O-])on2)cc1OC	0.9	i
O=C(CNS(=O)(=O)c1cccs1)N1CCC2(CC1)OCCO2	-0.8	x
CCCCn1c(O)c(C(C)=NCCc2ccccc2)c(=O)[nH]c1=O	3.2	i
O=C(c1cc2c(s1)-c1ccccc1OC2)N1CCC2(CC1)OCCO2	1.4	x
CCS(=O)(=O)N1CCC(C(=O)N2CCC3(CC2)OCCO3)CC1	-0.7	x
CN1C(=O)c2ccccc2Sc2ccc(C(=O)N3CCC4(CC3)OCCO4)cc21	-0.8	x
CC(=O)C1C(=O)NC23CCCCC2C1c1ccccc1O3 (stereo not drawn)	-0.1	i
O=c1[nH]c(=O)n(CCc2ccccc2)c(O)c1C=NCCN1CCNCC1	-2.7	i
CC(C)[C@@]1(NC(=O)[C@@H]2C=C3c4cccc5[nH]cc(c45)C[C@H]3N(C)C2)O[C@@]2(O)[C@@H]3CCCN3C(=O)[C@H](Cc3ccccc3)N2C1=O	18	i
CC(C)Cn1cc(C(=O)N2CCC3(CC2)OCCO3)c2c3ccccc3n(C)c2c1=O	0.5	x
O=C(CN1C(=O)CN=C(c2ccccc2Cl)c2cc(Cl)ccc21)NCc1ccco1	2.2	x
COc1ccc2[nH]cc(CCN(C)C)c2c1	0.0	i

Reformatted bar-delimited: part of the list above
compound | Proteasome disasm | VCAM-1 up
COc1ccc(CC[n+]2cc(/N=C(\C)[O-])on2)cc1OC | 0.9 | i
O=C(CNS(=O)(=O)c1cccs1)N1CCC2(CC1)OCCO2 | -0.8 | x
CCCCn1c(O)c(C(C)=NCCc2ccccc2)c(=O)[nH]c1=O | 3.2 | i
O=C(c1cc2c(s1)-c1ccccc1OC2)N1CCC2(CC1)OCCO2 | 1.4 | x

(listing goes on)
SMILES	Proteasome disasm	VCAM-1 up
CCCCn1c(O)c(C=NC2CCCCC2N)c(=O)[nH]c1=O (stereo not drawn)	-0.8	i
COc1ccc(CCn2c(O)c(C=NCCCN(C)C)c(=O)[nH]c2=O)cc1OC	-0.4	i
COc1ccc(-n2c(=O)[nH]c3ccccc3c2=O)c(OC)c1	1.3	x
C#CCN(C)C(C)Cc1ccccc1 (stereo not drawn)	0.6	i
Cc1cccc(N2CCc3c2nc2ccccc2c3N)c1	5.2	i
CC(=O)Nc1ccc(S(=O)(=O)NC(CC(=O)N2CCC3(CC2)OCCO3)C(C)C)cc1 (stereo not drawn)	-0.1	x
CCCC[n+]1cc(/N=C(\[O-])OC)on1	-0.2	x
COc1ccc(C(CC(=O)N2CCC3(CC2)OCCO3)NS(=O)(=O)c2ccc(OC)cc2)cc1 (stereo not drawn)	-0.4	x
Cc1cc(C)c(C2=NOC(O)(C(F)(F)F)C2)c(=O)[nH]1 (stereo not drawn)	-1.6	x
CCCNS(=O)(=O)c1ccc(OCC(=O)N2CCN(Cc3ccccc3)CC2)cc1	-0.6	i
CN1C2CCC1CC(OC(=O)c1ccc(Cl)cc1)C2 (stereo not drawn)	0.1	x
COc1ccc(C2C(C(=O)N3CCC4(CC3)OCCO4)CC(=O)N2c2ccc(OC)cc2)cc1 (stereo not drawn)	5.0	x
Cc1nn(-c2ccccc2)c2c1CC1(C(=O)N(C)C(=O)N(C)C1=O)C1CCCCN21 (stereo not drawn)	0.5	i
CN(C)CCc1nc2ccccc2c(=O)n1-c1ccccc1	-0.4	i
CN1CCN(c2nc3ccccc3c(=O)n2-c2ccccc2)CC1	0.9	i

Rewritten bar-delimited: 7 of the compounds above
smiles | Proteasome disasm | VCAM-1 up
Cc1cc(OCC(=O)O)c2c3c(c(=O)oc2c1)CCCC3 | -0.6 | i
CCOc1cc2[nH]c(=S)n(CCCC(=O)N3CCC4(CC3)OCCO4)c(=O)c2cc1OCC | -0.5 | i
O=C(NCC(c1cccnc1)N1CCN(c2ccccc2)CC1)Oc1ccccc1 (stereo not drawn) | 45* | x
COc1ccc(CC[n+]2cc(/N=C(\C)[O-])on2)cc1OC | 0.9 | i
Cc1nc2ccccc2c(=O)n1-c1ccc(F)cc1 | 1.2 | i
COc1ccc(C(CC(=O)N2CCC3(CC2)OCCO3)NS(=O)(=O)c2ccc(OC)cc2)cc1 (stereo not drawn) | -0.4 | x
O=P(OCC(F)(F)C(F)F)(N1CCCCC1)N1CCCCC1 | 0.1 | i

(list continues)
SMILES	Proteasome disasm	VCAM-1 up
Cc1cccc(-n2c(C)nc3cc(C(=O)N4CCC5(CC4)OCCO5)ccc32)c1	1.7	x
Cc1ccc(O)c(CN2CCN(c3ccccc3)CC2)c1	1.0	i
NC(=O)OCCSc1nnc(-c2cccc(C(N)=S)c2)o1	0.4	i
CN(C)c1nc(-c2ccccc2)[n+](C)s1	2.6	x
COc1ccc(CC2C(=O)NC(=O)NC2=O)c(OC)c1	-1.0	i
O=C(c1ccc2c(c1)ncn2C1CCCCCC1)N1CCC2(CC1)OCCO2	0.9	x
COC(=O)C(O)(c1c(C)[nH]n(-c2ccccc2)c1=O)C(F)(F)F (stereo not drawn)	-0.2	x
O=C(NC1(C(F)(F)F)Oc2ccccc2O1)N1CCC2(CC1)OCCO2	0.8	x
O=C(C(Cc1ccccc1)NS(=O)(=O)c1ccc(F)cc1)N1CCC2(CC1)OCCO2 (stereo not drawn)	-0.2	i
CC(C)(C)OC(=O)c1c(N)n(Cc2ccco2)c2nc3ccccc3nc12	1.0	i
CCn1c(=O)cc(OCC(=O)N2CCC3(CC2)OCCO3)c2ccccc21	1.8	x
Cc1cc(Cl)ccc1OC(C)C(=O)O (stereo not drawn)	-1.0	x
Cc1nc2ccccc2c(=O)n1-n1cnnc1	-3.8	x
O=C(c1ccc2nc(-c3ccco3)c(-c3ccco3)nc2c1)N1CCC2(CC1)OCCO2	1.5	i

Three entries from above, with two lines to a compound:
The line under a structure holds: Proteasome disasm, VCAM-1 up
> O=C(c1ccc2c(c1)ncn2C1CCCCCC1)N1CCC2(CC1)OCCO2
  0.9, x
> Cc1ccc(O)c(CN2CCN(c3ccccc3)CC2)c1
  1.0, i
> NC(=O)OCCSc1nnc(-c2cccc(C(N)=S)c2)o1
  0.4, i
